Vaccinia stage: blocks a specific stage of Vaccinia orthopoxvirus infection, primary screen, cell-based, single point. Vaccinia-infected cells, mCherry/Venus stage reporter fluorescence; hits give low values; some inactives read as strong as hits. activity change (mCherry), % (no concentration beside the values). 89,000 tested, 0.01% active;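 active means mCherry past -33% and 40 or more points under the early reporter, replicates agreeing; inconclusive means past -33% without that gap or agreement; tested in A549 cells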;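 further: scaled between vehicle wells and reference inhibitor wells; 23 nL library stock went into each well; one replicate is shown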
Vaccinia stage Venus: further read-out of Vaccinia stage, marked with its call; activity change (Venus), %; measured here: Venus reporter, other viral stage;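 negative = less Venus signal; first of two replicates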
An asterisk follows results filed as active; ? = inconclusive; nt = no result given.

1. COc1ccc(NC(=O)Nc2ccc3c(c2)[C@@H]2C[C@@H](CC(=O)N(C)C)O[C@@H](CO)[C@@H]2O3)cc1
2. C[C@@H]1CN([C@@H](C)CO)S(=O)(=O)c2ccc(C#Cc3ccccc3F)cc2O[C@@H]1CN(C)C(=O)Cc1ccncc1
3. C[C@H]1CN([C@@H](C)CO)C(=O)c2cc(NC(=O)CCN3CCOCC3)ccc2O[C@@H]1CN(C)S(C)(=O)=O
4. CN1CCN(C(=O)c2cc3c(c(-c4cccc(-c5ccc(C#N)cc5)c4)n2)[C@@H](CCO)N([S@](=O)C(C)(C)C)C3)CC1
5. C[C@H]1CN([C@@H](C)CO)C(=O)c2cc(NS(=O)(=O)c3ccccc3)ccc2O[C@H]1CN(C)S(=O)(=O)c1cccs1
6. CNC(=O)C[C@H]1CC[C@@H]2[C@H](COC[C@H](O)CN2C(=O)Nc2cccc(OC)c2)O1
7. CO[C@H]1CN(C)C(=O)c2cc(NC(=O)c3ccc(Oc4ccccc4)cc3)ccc2OC[C@@H](C)NC[C@@H]1C
8. Cc1ccc(S(=O)(=O)N(C)C[C@H]2Oc3c(NC(=O)Nc4ccc(C(F)(F)F)cc4)cccc3C(=O)N([C@@H](C)CO)C[C@H]2C)cc1
assay / entry,1,2,3,4,5,6,7,8
Vaccinia stage Venus,10,nt,8,8,nt,-2,nt,nt
Vaccinia stage,9,?,3,14,?,8,?,?

9. Cc1cc(C(=O)Nc2cccc3c2O[C@H](CN(C)S(C)(=O)=O)[C@H](C)CN([C@H](C)CO)C3=O)n(C)n1
10. CN1CCN(C(=O)C[C@@H]2CC[C@@H]3[C@H](COC[C@@H](O)CN3Cc3ccc4c(c3)OCO4)O2)CC1
11. O=C(C[C@@H]1CC[C@H]2[C@@H](COC[C@@H](O)CN2C(=O)c2ccncc2)O1)Nc1ccc(-c2ccccc2)cc1
12. O=C(c1cccc(F)c1)N1CCCCN2[C@H](C1)[C@H](c1ccc(-c3ccncc3)cc1)[C@@H]2CO
13. O=C(C[C@@H]1C[C@@H]2c3cc(NC(=O)c4cccnc4)ccc3O[C@@H]2[C@@H](CO)O1)NCCN1CCCCC1
14. CCC(=O)N1CC[C@@H]2[C@@H](CO)Nc3ccc(C#Cc4ccccc4)cc3[C@@H]21
15. Cc1noc(C)c1S(=O)(=O)Nc1ccc2c(c1)CC(=O)N([C@@H](C)CO)C[C@H](C)[C@@H](CN(C)S(=O)(=O)c1ccc(Cl)cc1)O2
16. O=C(C[C@@H]1C=C[C@H](NC(=O)C2CC2)[C@H](CO)O1)NCC1CC1
assay / entry,9,10,11,12,13,14,15,16
Vaccinia stage Venus,8,-2,-10,2,-4,-4,1,4
Vaccinia stage,23,11,-26,21,-8,-4,4,6

17. C[C@@H]1CN([C@H](C)CO)C(=O)c2cc(-c3cccnc3)cnc2O[C@H]1CN(C)C(=O)NC1CCCC1
18. COCC(=O)N1[C@@H](CO)[C@@H]2c3ccccc3N(C)C[C@@H]21
19. C[C@H](CO)N1C[C@H](C)[C@@H](CN(C)Cc2ccc(C(F)(F)F)cc2)OCCCC[C@H](C)Oc2ccc(NC(=O)Nc3ccc(F)cc3)cc2C1=O
20. C[C@H](CO)N1C[C@H](C)[C@@H](CN(C)C(=O)C2CC2)Oc2ncc(-c3cccnc3)cc2C1=O
21. CCCC(O)C#Cc1cnc2c(c1)C(=O)N([C@H](C)CO)C[C@H](C)[C@H](CN(C)S(C)(=O)=O)O2 (stereo partly drawn)
22. CCCC(=O)Nc1ccc2c(c1)OC[C@@H](C)N(C(=O)C1CCCC1)C[C@@H](C)[C@@H](OC)CN(C)C2=O
23. CCC(=O)N[C@H]1C=C[C@@H](CC(=O)NCC2CCCCC2)O[C@H]1CO
24. CCc1cnc(N2[C@H](CO)[C@@H](c3ccc(C4=CCCCC4)cc3)[C@@H]2C#N)s1
assay / entry,17,18,19,20,21,22,23,24
Vaccinia stage Venus,9,7,2,3,8,10,3,-18
Vaccinia stage,28,12,-4,18,34,7,8,-22

25. C[C@H](CO)N1C[C@H](C)[C@@H](CN(C)S(=O)(=O)c2cn(C)cn2)Oc2c(NS(C)(=O)=O)cccc2C1=O
26. CCC(=O)Nc1ccc2c(c1)OC[C@H](C)NC[C@H](C)[C@@H](OC)CN(C)C2=O
27. Cc1noc(C)c1NC(=O)N[C@H]1C=C[C@@H](CC(=O)NCCCN(C)C)O[C@H]1CO
28. C[C@@H]1CN([C@@H](C)CO)C(=O)Cc2cc(NC(=O)Nc3ccc(C(F)(F)F)cc3)ccc2O[C@H]1CN(C)Cc1ccc(-c2ccccc2)cc1
29. Cc1ccc(S(=O)(=O)N(C)C[C@H]2Oc3c(NC(=O)Nc4cccc5ccccc45)cccc3C(=O)N([C@@H](C)CO)C[C@@H]2C)cc1
30. C[C@H](CO)N1C[C@H](C)[C@H](CN(C)C(=O)Cc2ccccc2)OCCCC[C@H](C)Oc2ccc(NC(=O)c3ccncc3)cc2C1=O
31. O=C(Nc1cc(F)ccc1F)N1CC(=O)N2[C@H](CO)[C@H](c3ccc(-c4cccnc4)cc3)[C@H]2C1
32. CN1C(=O)c2cc(NS(C)(=O)=O)ccc2OC[C@@H]2O[C@@H](CC(=O)NC3CCCCC3)CC[C@@H]21
assay / entry,25,26,27,28,29,30,31,32
Vaccinia stage Venus,-5,-7,-2,-7,nt,13,-12,3
Vaccinia stage,7,-6,1,-6,?,25,-8,10

33. C[C@H]1CN([C@@H](C)CO)C(=O)c2cc(C#Cc3cccc(F)c3)cnc2O[C@@H]1CN(C)Cc1ccccn1
34. COc1ccc(S(=O)(=O)N2CCCCN3[C@H](C2)[C@H](c2ccc(C4=CCCC4)cc2)[C@@H]3CO)cc1
35. CO[C@@H]1CN(C)C(=O)c2ccc(NS(=O)(=O)c3cn(C)cn3)cc2OC[C@@H](C)N(Cc2ccc(C(F)(F)F)cc2)C[C@H]1C
36. Cc1noc(C)c1S(=O)(=O)Nc1ccc2c(c1)C(=O)N([C@@H](C)CO)C[C@@H](C)[C@H](CN(C)CC1CC1)O2
37. O=C(O)[C@H]1[C@H](CO)[C@H]2Cn3c(ccc(C4=CCCCC4)c3=O)[C@@H]1N2C(=O)Cc1ccccn1
38. C[C@@H]1CCCCO[C@@H](CN(C)S(C)(=O)=O)[C@H](C)CN([C@@H](C)CO)C(=O)c2cc(NC(=O)Nc3ccc(C(F)(F)F)cc3)ccc2O1
39. C[C@@H]1CCCCO[C@@H](CN(C)C(=O)CCCN(C)C)[C@@H](C)CN([C@H](C)CO)C(=O)c2cc(NC(=O)CCCN(C)C)ccc2O1
40. O=C(NCC[C@@H]1CC[C@@H](NS(=O)(=O)Cc2ccccc2)[C@@H](CO)O1)C1CCCCC1
assay / entry,33,34,35,36,37,38,39,40
Vaccinia stage Venus,-5,3,-10,2,10,7,8,2
Vaccinia stage,4,1,-4,2,10,17,8,-3

41. O=C(C1=C[C@@H](c2csc3ccccc23)C[C@@H](OCc2ccc(CO)cc2)O1)N1CCOCC1
42. COc1cccc(C(=O)N2C[C@@H]3[C@H](c4ccccc42)[C@H](CO)N3Cc2cccnc2)c1
43. CC(=O)N1[C@@H](CO)[C@H](c2ccccc2)[C@@H]1CN(C(=O)c1ccccc1)C(C)C
44. C[C@@H]1CCCCO[C@@H](CN(C)C(=O)NC2CCCCC2)[C@@H](C)CN([C@@H](C)CO)C(=O)c2cc(NS(=O)(=O)c3ccc(Cl)cc3)ccc2O1
45. C[C@@H]1CN([C@H](C)CO)C(=O)c2cc(NS(=O)(=O)c3ccccc3)ccc2O[C@@H]1CN(C)Cc1ccc(Cl)c(Cl)c1
46. C[C@H]1CN([C@@H](C)CO)C(=O)c2cc(-c3cccc(C#N)c3)cnc2O[C@@H]1CN(C)Cc1ccc(F)cc1
47. CCCNC(=O)[C@H]1[C@H](CO)[C@H]2Cn3c(cccc3=O)[C@@H]1N2Cc1ccccc1
48. COc1ccc(S(=O)(=O)Nc2ccc3c(c2)C(=O)N([C@@H](C)CO)C[C@H](C)[C@@H](CN(C)S(=O)(=O)c2cccs2)O3)cc1
assay / entry,41,42,43,44,45,46,47,48
Vaccinia stage Venus,10,7,4,-14,nt,-9,23,9
Vaccinia stage,7,-3,1,-24,?,-10,17,16

49. O=C1CN(Cc2ccccc2)C[C@H]2[C@H](c3ccc(Br)cc3)[C@@H](CO)N12
50. CCC(=O)N1CC(=O)N2[C@H](C1)[C@H](c1ccc(-c3ccc(C(=O)N(C)C)cc3)cc1)[C@@H]2CO
51. C[C@@H]1CN([C@H](C)CO)C(=O)c2cc(NC(=O)CCN3CCOCC3)ccc2O[C@@H]1CN(C)CC1CCCCC1
52. CCC(=O)N1CC2(C1)[C@H](c1ccc(-c3ccc(C#N)cc3)cc1)[C@H](CO)N2C(C)=O
53. CCC(=O)Nc1ccc2c(c1)OC[C@H](C)N(C(=O)CC1CC1)C[C@H](C)[C@@H](OC)CN(C)C2=O
54. CO[C@H]1CN(C)C(=O)c2cc(NC(=O)C3CCC3)ccc2OC[C@H](C)N(Cc2ccc(F)cc2)C[C@H]1C
55. COc1ccc(C#Cc2ccc3c(c2)[C@H]2[C@H](CCN2C(=O)CN2CCOCC2)[C@H](CO)N3C)cc1
56. O=C(c1ccc2c(c1)OCO2)N1CC2(C1)[C@H](c1ccccc1)[C@H](CO)N2C(=O)C1CCCC1
assay / entry,49,50,51,52,53,54,55,56
Vaccinia stage Venus,-9,17,2,8,-9,-17,-2,14
Vaccinia stage,6,25,-1,5,-15,-27,-2,1

57. O=C(C[C@H]1CC[C@H]2[C@@H](COC[C@@H](O)CN2Cc2ccc3c(c2)OCO3)O1)Nc1ccccc1
58. CCC(=O)N1[C@H](CO)[C@@H](c2ccccc2)C12CN(CC1CCOCC1)C2
59. CC(C)NC(=O)N1[C@H](C#N)[C@H](c2ccc(-c3ccc(F)cc3)cc2)[C@@H]1CO
60. CCCNC(=O)N1[C@H](C#N)[C@@H](c2ccccc2-c2ccccc2)[C@@H]1CO
61. CO[C@H]1CN(C)C(=O)c2cc(NC(C)=O)ccc2OC[C@H](C)N(CCC(F)(F)F)C[C@H]1C
62. C[C@H](NC(=O)C[C@@H]1CC[C@H](NC(=O)c2cccnc2)[C@@H](CO)O1)c1ccccc1
63. C[C@H](CO)N1C[C@H](C)[C@@H](CN(C)Cc2cccc(C(=O)O)c2)OCc2cn(nn2)CCCC1=O
64. NC(=O)C1=C[C@@H](c2coc3ccccc3c2=O)C[C@@H](OCCCCO)O1
assay / entry,57,58,59,60,61,62,63,64
Vaccinia stage Venus,-9,5,nt,1,9,4,14,4
Vaccinia stage,-17,1,?,4,-5,10,12,3

65. CC(=O)N1CC2(C1)[C@@H](c1ccc(-c3cccc(F)c3)cc1)[C@@H](CO)N2CC1CC1
66. O=C(C[C@@H]1CC[C@@H]2[C@H](COC[C@H](O)CN2C(=O)Nc2ccc(Cl)cc2)O1)NCc1ccncn1
67. C[C@H](CO)N1C[C@H](C)[C@H](CN(C)S(=O)(=O)c2cn(C)cn2)OCCCC[C@H](C)Oc2ccc(NC(=O)c3ccccc3)cc2C1=O
68. CO[C@@H]1CN(C)C(=O)c2ccc(NC(=O)c3ccc4c(c3)OCO4)cc2OC[C@H](C)N(CC2CC2)C[C@@H]1C
69. C[C@@H]1CN([C@@H](C)CO)C(=O)c2cc(NC(=O)NC3CCCCC3)ccc2O[C@@H](C)CCCCO[C@H]1CN(C)C(=O)c1ccccc1
70. C[C@H](CO)N1C[C@H](C)[C@H](CN(C)C(=O)Cc2ccncc2)Oc2cc(C3=CCCC3)ccc2S1(=O)=O
71. Cc1ccc(S(=O)(=O)N(C)C[C@H]2Oc3c(NS(=O)(=O)c4ccc(Cl)cc4)cccc3C(=O)N([C@@H](C)CO)C[C@@H]2C)cc1
72. C[C@@H]1CN([C@H](C)CO)C(=O)Cc2cc(NC(=O)Cn3cnnn3)ccc2O[C@@H]1CN(C)C
assay / entry,65,66,67,68,69,70,71,72
Vaccinia stage Venus,-2,0,3,4,-9,28,nt,10
Vaccinia stage,1,-5,11,8,-19,27,?,1

73. O=C(C[C@@H]1CC[C@@H]2[C@H](COC[C@H](O)CN2C(=O)c2ccccc2F)O1)NCc1ccccc1
74. COCC#Cc1cnc2c(c1)C(=O)N([C@@H](C)CO)C[C@H](C)[C@@H](CN(C)Cc1ccc3c(c1)OCO3)O2
75. CO[C@H]1CN(C)C(=O)c2ccc(NC(=O)CC(F)(F)F)cc2OC[C@@H](C)N(CC2CC2)C[C@H]1C
76. C[C@H](CO)N1C[C@H](C)[C@@H](CN(C)S(=O)(=O)c2ccc(F)cc2)OCCCC[C@H](C)Oc2ccc(NS(=O)(=O)c3cn(C)cn3)cc2C1=O
assay / entry,73,74,75,76
Vaccinia stage Venus,13,-1,14,0
Vaccinia stage,15,-5,35,7

Compound profiles, as listed above. Screens in order: Vaccinia stage Venus	Vaccinia stage
Shown for CO[C@H]1CN(C)C(=O)c2ccc(NC(=O)CC(F)(F)F)cc2OC[C@@H](C)N(CC2CC2)C[C@H]1C : 14	35
Shown for C[C@H](CO)N1C[C@H](C)[C@@H](CN(C)S(=O)(=O)c2ccc(F)cc2)OCCCC[C@H](C)Oc2ccc(NS(=O)(=O)c3cn(C)cn3)cc2C1=O : 0	7
Shown for O=C(C[C@@H]1CC[C@@H]2[C@H](COC[C@H](O)CN2C(=O)c2ccccc2F)O1)NCc1ccccc1 : 13	15
Shown for COCC#Cc1cnc2c(c1)C(=O)N([C@@H](C)CO)C[C@H](C)[C@@H](CN(C)Cc1ccc3c(c1)OCO3)O2 : -1	-5

Screening data as filed in PubChem.

The list is partial, so the mix of outcomes need not match the whole.
